VACV E9 pol inh = blocks vaccinia virus processive DNA synthesis | in vitro processive DNA synthesis, absorbance read-out; hits give low values; some inactives read as strong as hits | normalized absorbance, % (concentration not given with the values) | actives 0.94% (n = 46,000);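 active means replicate mean up to 90% and picked by the depositor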;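 further: 100% = median of the test wells of a plate; 100 nL library stock went into each well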
Starred values were filed as active, the others as inactive. Only part of the results is shown, so the mix of outcomes need not match the whole.

| canonical_smiles | VACV E9 pol inh |
| --- | --- |
| COc1ccc(NC(=O)CC2SC(N)=NC2=O)cc1 (stereo not given) | 102 |
| Cc1cccc(C(C)C)c1NC(=O)COC(=O)c1cccnc1Cl | 85 |
| CCOC(=O)C1CCN(C(=O)COc2ccccc2)CC1 | 98 |
| S=c1[nH]c(=S)c2cnc(N3CCOCC3)nc2[nH]1 | 113 |
| O=C(CSc1nc2scc(-c3cccs3)c2c(=O)n1-c1ccccc1)NCc1ccco1 | 101 |
| NC(=O)c1ccc(NC(=O)c2cc3c(s2)CCC3)cc1 | 100 |
| C=C(C)Cc1c(C)nc(-c2ccc(C)c(Cl)c2)nc1OC(=O)N(C)C | 92 |
| COC(=O)CCC(=O)c1c(C)[nH]c2ccccc12 | 97 |
| CC(C(=O)O)N1C(=O)C2C3C=CC(C3)C2C1=O (stereo not given) | 99 |
| O=C(NCc1ccc2c(c1)OCO2)C1(S(=O)(=O)c2ccc(Cl)cc2)CC1 | 96 |
| CCOc1cc(OCC)c2c(-c3ccccc3)cc(=O)oc2c1 | 101 |
| Cc1ccc(NC(=O)Cn2cc(/C=C3/NC(=O)NC3=O)c3ccccc32)cc1 | 101 |
| O=C(Cc1cccc(C(F)(F)F)c1)Nc1ccccc1 | 98 |
| CC(C)(C)NC(=S)Nc1cc(C(F)(F)F)cc(C(F)(F)F)c1 | 87 |
| CCOc1ccc(Br)cc1C=Nc1ccc2c(c1)OCO2 | 102 |
| CC(C)(CO)N1Cc2ccccc2C1=O | 99 |
| N#Cc1ccc(C(=O)OCc2ccccc2)cc1 | 106 |
| O=C(CSc1nc2nccnc2c(=O)n1Cc1ccccc1)Nc1ccccc1C(F)(F)F | 96 |
| Cc1ccc(NCC(O)Cn2c(C)c(C)c3ccccc32)cc1 (stereo not given) | 100 |
| COc1nc(-c2ccccc2)cc(-c2ccccc2)c1C#N | 100 |
| NC(=O)CSc1nc2c(c(=O)n1-c1ccccc1)C1=C(CCC1)C2 | 100 |
| Cc1nn2c(-c3ccc(NC(=O)c4ccccc4Cl)cc3)nnc2c2ccccc12 | 106 |
| Cc1ccc(NC(=O)C2CC(=O)N=C(N)S2)cc1C (stereo not given) | 87 |
| N#CC1=C(SCC(N)=O)NC(=O)CC1c1ccccc1Cl (stereo not given) | 90 |
| O=C(Nc1cc2ccccc2s1)NC1Cc2ccccc2C1 | 89 |
| COc1ccc2oc(=Nc3ccc(C(=O)O)cc3)c(C(=O)NCc3ccccc3)cc2c1 | 93 |
| Cc1ccc(NC(=O)CNc2ccccc2)cc1 | 104 |
| O=c1[nH]cnc2c1sc(=S)n2-c1ccccc1 | 107 |
| CN(C(=O)c1cc2ccccc2oc1=O)C1CCS(=O)(=O)C1 (stereo not given) | 95 |
| Cc1oc(-c2cccc(Cl)c2)nc1CN1CCC(C(=O)NCCCN2CCCC2)CC1 | 98 |

Some of the entries above in a different format.
> Cc1cccc(C(C)C)c1NC(=O)COC(=O)c1cccnc1Cl
- VACV E9 pol inh = 85
> O=C(Cc1cccc(C(F)(F)F)c1)Nc1ccccc1
- VACV E9 pol inh = 98

Back to the main list, repeating the five entries before the break.
| canonical_smiles | VACV E9 pol inh |
| --- | --- |
| COc1ccc2oc(=Nc3ccc(C(=O)O)cc3)c(C(=O)NCc3ccccc3)cc2c1 | 93 |
| Cc1ccc(NC(=O)CNc2ccccc2)cc1 | 104 |
| O=c1[nH]cnc2c1sc(=S)n2-c1ccccc1 | 107 |
| CN(C(=O)c1cc2ccccc2oc1=O)C1CCS(=O)(=O)C1 (stereo not given) | 95 |
| Cc1oc(-c2cccc(Cl)c2)nc1CN1CCC(C(=O)NCCCN2CCCC2)CC1 | 98 |
| CC1CCN(CCC(=O)Nc2ccc3c(c2)OCO3)CC1 | 98 |
| COc1ccc(Nc2nc(C(=O)N3CCN(C)CC3)cs2)cc1 | 102 |
| COC(C(=O)O)c1ccccc1 (stereo not given) | 90 |
| CCN(Cc1ccccc1)C(=O)Cn1c(=O)n(-c2cccc(OC)c2)c(=O)c2sccc21 | 100 |
| CCOC(=O)c1ccc(NC(=O)c2cc(=O)c3ccccc3o2)cc1 | 99 |
| CCc1nn(Cc2ccccc2)c(=O)c2cc3cc(C)ccc3n12 | 97 |
| Cc1c(Br)c(C(F)(F)F)nn1CC(N)=O | 101 |
| O=C(c1ncc[nH]1)c1ccccc1C(=O)N1CCCC1 | 98 |
| Cc1occc1C(=O)C(C#N)=C(NCc1cccnc1)NCc1cccnc1 | 106 |
| CCCn1c(-c2ccccc2Cl)nc2ccccc21 | 94 |
| CCN(CC)c1ccc(C=NCCc2ccccc2)c(O)c1 | 100 |
| CCC(C)NC(=O)CSc1nc2ccc(Br)cc2c2nc3ccccc3n12 (stereo not given) | 101 |
| CCSC1=NSC2=NC(=O)/C(=C\c3ccc(OC(=O)c4ccco4)c(Cl)c3)C(=N)N12 | 90 |
| COc1ccc2c(c1)c1c3n2CCN(C2CCCCC2)C3=NCC1 | 77 |
| c1ccc(CN2CN=C(Nc3nc4ccccc4o3)NC2)cc1 | 103 |
| Nc1nc2c(c(=O)[nH]1)N(C=O)C(CNc1ccc(C(=O)N[C@@H](CCC(=O)O)C(=O)O)cc1)CN2 (stereo not given in full) | 102 |
| COC(=O)C1=C(C)N(Cc2ccccc2)C(=O)/C1=C\c1cccc(Cl)c1 | 100 |
| CC(=O)OC1=C(C(=O)c2ccccc2)N(C)S(=O)(=O)c2ccccc21 | 100 |
| CCN(CC)C(=O)c1cccc(OC)c1 | 98 |
| Cc1ccc2nc(-c3ccccn3)[nH]c2c1 | 100 |
| Cc1ccccc1Cn1c(=O)n(CCCCC(=O)NC2CCCC2)c(=O)c2ccccc21 | 101 |
| COc1cccc2c(=O)n(CC(=O)N3CCc4ccccc43)ccc12 | 88 |
| CC1(C)CC2(CC(c3ccccc3F)c3cc(Cl)c(O)cc3O2)NC(=S)N1 (stereo not given) | 97 |
| Cc1cc(Cl)ccc1NS(=O)(=O)c1ccc2c(c1)[C@H]1C=CC[C@H]1[C@@H](c1ccccc1)N2 | 101 |
| CCC(Sc1nc2ncccc2c(=O)n1-c1ccccc1)C(=O)Nc1ccc(OC)cc1 (stereo not given) | 100 |
| Nc1nc(SCC(=O)NCCO)nc2sc3c(c12)CCCC3 | 98 |
| CCN(CC)C(=O)c1cc2c(=O)n3cccc(C)c3nc2s1 | 100 |
| O=C(COC(=O)CSc1cc(Cl)ccc1Cl)Nc1ccc(F)c(F)c1F | 100 |
| COc1ccc2[nH]c3c(=O)n(Cc4ccc(C(=O)NC5CC5)cc4)c(=S)[nH]c3c2c1 | 103 |
| c1nc2ccc(Cc3ccc4nc[nH]c4c3)cc2[nH]1 | 110 |
| COc1cccc(-n2cc(C(=O)N(CC(C)C)CC(C)C)c3ccccc3c2=O)c1 | 105 |
| CN(C)C(=O)Oc1cc(CSC(C)(C)C)nc(-c2cccs2)n1 | 105 |
| O=C1/C(=C/N2CCCCC2)SC(=S)N1c1ccc(F)cc1 | 99 |
| O=c1c(/C=N\O)coc2ccc(F)cc12 | 79 |
| CCc1ccc(/C=C2/C(=O)N(C3CCCCC3)C(=S)N2C)cc1 | 99 |
| CCOc1ccc2c3c(c(=O)oc2c1)CCC3 | 101 |
| Cc1ccc(-c2ccc(O)cc2)cc1 | 101 |
| Cc1cc(=O)oc2n[nH]c(CSc3ccc(Cl)cc3)c12 | 100 |
| CCCc1cc2c(=O)c(-c3ccccn3)c(C)oc2cc1OC(C)=O | 103 |
| CC[C@@H](C(=O)[C@@H](C)[C@@H](O)[C@H](C)[C@@H]1O[C@@H]([C@@H](CC)C(=O)O)CC[C@@H]1C)[C@H]1OC2(C=C[C@@H](O)[C@]3(CC[C@@](C)([C@H]4CC[C@](O)(CC)[C@H](C)O4)O3)O2)[C@H](C)C[C@@H]1C (stereo not given in full) | 100 |
| c1ccc(CN=C2CCc3ccccc3N2)cc1 | 106 |
| O=C(c1ccccc1)c1cn(Cc2ccc(F)cc2)c2ccccc12 | 101 |
| COc1ccc(N=Cc2sc3ccccc3c2O)cc1 | 100 |
| CC1Cc2ccccc2N1C(=O)C1(S(=O)(=O)c2ccccc2)CCCC1 (stereo not given) | 89 |
| C=CCOC(=O)C1C(c2ccccc2)c2c([nH][nH]c2=O)CC1(C)O (stereo not given) | 101 |
| O=C(Nc1ccc(-c2noc(COc3ccc(Br)cc3)n2)cc1)c1cccnc1 | 110 |
| COc1cccc2c(=O)c3c(cnn3C)n(C)c12 | 90 |
| CC(=O)Nc1ccc(Br)cc1 | 111 |
| COc1ccc2c(c1)CCc1sc(NC(=O)c3cc(OC)c(OC)c(OC)c3)nc1-2 | 100 |
| CCCSc1nc2c(c(=O)n1-c1ccc(F)cc1)SCC2 | 99 |
| O=C(Nc1nccs1)c1ccc(-c2nc3ccccc3s2)s1 | 113 |
| CC1CN(C(=O)c2scc3c2OCCO3)CC(C)O1 (stereo not given) | 100 |
| Cc1c(C(=O)NCc2ccccc2)oc2ccc(S(=O)(=O)N(C)C3CCCCC3)cc12 | 104 |
| COc1ccc(-n2c(-c3ccco3)nc3ccccc3c2=O)cc1 | 100 |
| N=C(SC1CC(=O)N(c2ccc(C(=O)O)cc2)C1=O)N1N=C(c2ccccc2)CC1c1ccccc1 (stereo not given) | 100 |
| CCC(C)NC(=O)CSc1c2c(nc3ccccc13)CCCC2 (stereo not given) | 100 |
| CC(=O)Nc1ccc(S(=O)(=O)N2C(=O)c3cccc4cccc2c34)cc1 | 100 |
| N#CC1=C(N)Oc2c(ccc3ccccc23)C1c1ccsc1 (stereo not given) | 99 |
| Cc1ccc(-c2nnc(-n3cnc4cc(C)c(C)cc43)c3ccccc23)cc1 | 100 |
| CCCOc1cccc(C(=O)Nc2nnn(C)n2)c1 | 104 |

More records.
| canonical_smiles | VACV E9 pol inh |
| --- | --- |
| O=C1CSC(=Nc2ccc(Cl)cc2)N1 | 104 |
| COc1ccc(Cl)cc1NC(=O)COC(C)=O | 99 |
| CCC1CCCCN1C(=O)CSc1nc2ccccc2s1 (stereo not given) | 97 |
| O=C1OC(c2ccco2)=N/C1=C\c1cccc(Cl)c1Cl | 101 |
| CC(=O)Nc1ccc(-c2cn3cccc(C)c3n2)cc1 | 97 |
| O=C(Nc1nc2sc3c(c2c(=O)s1)CCCC3)c1ccccc1 | 101 |
| CCN(CC)c1ccc(NC(=O)c2ccc(Cl)cc2)c(N(CC)CC)n1 | 102 |
| NC(=O)c1ccccc1NC(=O)CC12CC3CC(CC(Br)(C3)C1)C2 | 101 |
| CCCCC(=O)Nc1nnc(-c2c(C)c(C)cc(C)c2C)s1 | 101 |
| CC(=O)Nc1ccc(S(=O)(=O)NN2C(=O)/C(=C/c3ccco3)N=C2c2ccccc2)cc1C(=O)O | 100 |
| O=C(CSc1n[nH]c(=O)n1C1CC1)c1ccc(N2CCOCC2)cc1 | 103 |
| Cc1cc2cc(CNC(=O)CCC3CCCC3)ccc2[nH]1 | 99 |
| CN1CCN(c2nc3c(c(=O)[nH]2)CCCC3)CC1 | 98 |
| COc1ccc(CC(=O)N2N=C(C(F)(F)F)CC2(O)C(C)(C)C)cc1 (stereo not given) | 100 |
| Cc1ccc2oc(=O)c(-c3nc4ccccc4s3)cc2c1 | 84 |
| CCCn1c(=O)c(C(=O)NC23CC4CC(CC(C4)C2)C3)c(O)c2ccccc21 | 109 |
| CCOC(=O)C1CCC(CNCc2ccc(Cl)cc2)CC1 (stereo not given) | 104 |
| COCCc1nnc(CCOC)n1N | 89 |
| CC(C)CCNc1cc(C(C)C)c(C#N)c2nc3ccccc3n12 | 100 |
| Cc1csc(NC(=O)c2cccn(OCc3ccccc3)c2=O)n1 | 101 |
| NS(=O)(=O)c1ccc(CNC(=O)/C=C/c2ccc3c(c2)OCO3)cc1 | 100 |
| O=C(O)CC1Nc2ccccc2NC1=O (stereo not given) | 101 |
| O=C(Nc1ccno1)NN1CCOCC1 | 98 |
| CC12C(=O)N(CCC3=CCCCC3)C(=O)C1C(c1ccccc1)C=CC2c1ccccc1 (stereo not given) | 101 |
| CC1Cc2ccccc2N1C(=O)COC(=O)c1ccc(Cl)c(N)c1 (stereo not given) | 104 |
| CSc1ncc(Br)c(C(=O)O)n1 | 93 |
| Clc1cccc(C2NCc3ccccc3-n3cccc32)c1 (stereo not given) | 94 |
| N#CCC(=O)Nn1c(=S)[nH]c2ccccc2c1=O | 98 |
| CCN=C1SC(C(N)=O)CC(=O)N1CC (stereo not given) | 102 |
| CN(Cc1ccco1)C(=O)c1c[nH]c2ccc(S(=O)(=O)Nc3ccccc3F)cc2c1=O | 100 |
| Cc1cc(NC(=O)NC(C)(C)C)no1 | 98 |
| Cc1cccc2sc(NC(=O)c3ccc(COc4ccc5ccccc5c4)o3)nc12 | 100 |
| O=C1C=C(O)c2nc(-c3ccccc3)cc(C(=O)O)c2C1=O | 88 |
| COC(=O)CSc1nnnn1-c1ccc(C(=O)OC)cc1 | 100 |
| O=c1c2ccccc2nc(SCc2ccc(F)cc2)n1-c1ccccc1 | 100 |
| CN(C)C(=O)/C(=C\c1ccco1)NC(=O)c1ccccc1 | 88 |
| CCOC(=O)c1c(N)sc2c1CCC(Sc1ccccc1)C2=O (stereo not given) | 98 |
| COc1ccc(CCNc2ncnc3sc4c(c23)CCCC4)cc1 | 100 |
| Cc1nn(S(=O)c2ccc3ccccc3c2)c(C)c1Sc1ccc(Cl)cc1 (stereo not given) | 99 |
| Cc1cc(-c2ccccc2)nc2c1/C(=N\O)CC(C)(C)C2 | 88 |
| COc1ccc(-n2c(N)cc(=O)[nH]c2=O)cc1 | 102 |
| NC(=O)c1cccc2ccccc12 | 102 |
| O=C(Nc1ccncc1)c1cc2c(s1)CCC2 | 97 |

A draw from above in order of count of non-hydrogen atoms, highest first:
| canonical_smiles | VACV E9 pol inh |
| --- | --- |
| Cc1cccc2sc(NC(=O)c3ccc(COc4ccc5ccccc5c4)o3)nc12 | 100 |
| Cc1nn(S(=O)c2ccc3ccccc3c2)c(C)c1Sc1ccc(Cl)cc1 (stereo not given) | 99 |
| O=C1C=C(O)c2nc(-c3ccccc3)cc(C(=O)O)c2C1=O | 88 |
| COc1ccc(-n2c(N)cc(=O)[nH]c2=O)cc1 | 102 |

Compound activity deposited in PubChem BioAssay by ICCB-Longwood Screening Facility, Harvard Medical School.
